# RE007 growth inh: less growth of the S. pombe RE007 Vpr strain; AID 651644; hit rate 0.21% among 360,000; S. pombe RE007 Vpr strain, BacTiter-Glo ATP luminescence, 24 h; control for the full effect not named in the record; Potency, µM (doses to about 92.2 µM), for the others: at the highest dose activity change, negative = less growth; active = well fitted falling curve with a large enough effect; inconclusive = small, poorly fitted or top-dose-only effect; inactive = no such curve, though single readings can be large or run the other way;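 further: on the % scale 0 is the no-effect control and ±100 the full control effect; nearly all actives have a fitted effect of over 50% in size; the assay follows cell death caused by Vpr and the record does not say whether a fall means rescue or toxicity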
#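 Fission yeast RE007 carrying one integrated HIV-1 vpr copy, seeded at OD 0.01 in PMG+AL medium with 23 nL pinned compound. Grown 24 h at 30 degrees; viability read by BacTiter-Glo luminescence after 5 min.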
# Cruzain inh noDet: inhibitors of Trypanosoma cruzi cruzain without detergent; AID 1476; P25779; hit rate 2.3% among 200,000; Potency, µM, inactives show max response, negative = inhibition, actives largely listed as inhibitors; purified cruzain, Z-FR-AMC fluorescence, no detergent;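 further: plate controls were enzyme without inhibitor for no effect and buffer without enzyme for full effect; nearly all actives have a fitted effect of over 40% in size; top concentration of the series not given in the record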
# Target sequence (P25779 123-467 limits assumed): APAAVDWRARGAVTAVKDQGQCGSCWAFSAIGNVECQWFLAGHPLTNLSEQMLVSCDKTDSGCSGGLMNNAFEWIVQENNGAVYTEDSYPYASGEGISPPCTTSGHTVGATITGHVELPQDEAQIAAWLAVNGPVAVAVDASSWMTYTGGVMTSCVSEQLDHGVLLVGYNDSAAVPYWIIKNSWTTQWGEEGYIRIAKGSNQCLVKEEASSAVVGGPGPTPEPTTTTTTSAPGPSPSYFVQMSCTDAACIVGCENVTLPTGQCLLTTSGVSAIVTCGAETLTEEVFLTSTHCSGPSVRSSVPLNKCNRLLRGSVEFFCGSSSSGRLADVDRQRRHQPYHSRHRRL
#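 Purified cruzain at 1.5 nM, pre-incubated 15 min with compound at room temperature in 100 mM sodium acetate pH 5.5, 5 mM DTT, 0.00005% Triton X-100. Reaction started with 2 uM Z-FR-AMC; AMC fluorescence increase over 60 s gives rate.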
# Lassa entry inh: blocks Lassa virus binding to or entry into cells; Lassa virus pseudotype entry inhibition, cell reporter; control for the full effect not named in the record; Potency, µM (titrated, usually from 37.9 µM), for inactives: at the highest dose activity change, negative = inhibition, usual class: inhibitors; hit rate 1.2% among 300,000; AID 540256; active means well fitted inhibition curve with a large enough effect; inconclusive means small, poorly fitted or top-dose-only effect, or effect the other way; inactive means flat fitted curve, though single readings scatter; tested in HEK293 cells; further: on the % scale 0 is the no-effect control and ±100 the full control effect; nearly all actives have a fitted effect of over 50% in size; luciferase read-out
# SARS PLP yeast: SARS-CoV PLP inhibition in yeast; hit rate 0.19% among 330,000; AID 485353; S. cerevisiae expressing SARS-CoV PLpro, growth rescue; control for the full effect not named in the record; Potency, µM (highest dose often 32.9 µM), inactives show at the highest dose activity, positive = growth rescue; active means well fitted rising curve with a large enough effect; inconclusive means small, poorly fitted or top-dose-only effect; inactive means no such curve, though single readings can be large or run the other way; further: 0% is about no effect; nearly all actives have a fitted effect of over 55% in size; growth read by luminescence after 48 h
# NS1 function inh: inhibitors of influenza NS1 protein function; S. cerevisiae slowed by influenza A NS1, growth recovery by OD600; Potency, µM (highest dose often 46.1 µM), without a hit: at the top dose activity, positive = more growth; hit rate 0.4% among 270,000; AID 2326; active means well fitted rising curve with a large enough effect; inconclusive means small, poorly fitted or top-dose-only effect; inactive means no such curve, though single readings can be large or run the other way; further: nearly all actives have a fitted effect of over 50% in size
#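 Read-out: OD600 growth recovery of NS1-expressing budding yeast. Cells grown overnight at 30C in -URA glucose medium, washed, resuspended and diluted 1:100 in 2% galactose assay medium, pH 6.0. Same strain lacking NS1 served as positive control.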
# Cruzain Triton: inhibitors of Trypanosoma cruzi cruzain with detergent. purified cruzain, Z-FR-AMC fluorescence, 0.01% Triton. hit rate 0.43% among 200,000. Potency, µM, for inactives: max response, negative = inhibition, most hits filed as inhibitors. AID 1478. P25779;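 further: plate controls were neutral wells for no effect and buffer without enzyme for full effect; nearly all actives have a fitted effect of over 40% in size; top concentration of the series not given in the record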
#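 Detergent-containing arm of a paired screen for aggregation-based inhibition: 0.01% Triton X-100 present. Cruzain at 1.5 nM cleaved 2 uM Z-FR-AMC at pH 5.5 with 5 mM DTT; AMC fluorescence gain over 60 s measured activity.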
# StopGo reporter: lowers the luciferase signal of an FMDV 2A StopGo reporter | human cells with a luciferase reporter of 2A StopGo recoding; control for the full effect not named in the record | Potency, µM (doses to about 57.9 µM), for inactives: top-dose signal change, negative = less light | hit rate 1.2% among 410,000; active = well fitted falling curve with a large enough effect; inconclusive = small, poorly fitted or top-dose-only effect; inactive = no such curve, though single readings can be large or run the other way; tested in HEK293T cells; further: on the % scale 0 is the no-effect control and ±100 the full control effect; nearly all actives have a fitted effect of over 45% in size; luciferase light after 4 h
# Marburg entry inh: Marburg virus entry inhibition | Marburg virus pseudotyped entry inhibition, cell reporter; control for the full effect not named in the record; about a third of the inactives were read at about 46 µM | Potency, µM (top dose mostly 37.8 µM), for inactives: top-dose activity change, negative = inhibition, usual class: inhibitors | hit rate 1.8% among 300,000 | AID 540276; active = well fitted inhibition curve with a large enough effect; inconclusive = small, poorly fitted or top-dose-only effect, or effect the other way; inactive = flat fitted curve, though single readings scatter; tested in HEK293 cells; about a fifth of its hits are not listed in these tables; further: on the % scale 0 is the no-effect control and ±100 the full control effect; luciferase read-out
# Starred values were filed as active, the others as inactive; ? = inconclusive; nt = not tested or not shown; & = joins results of further samples; [ ] = another dose, or the depositor's remark. Unless noted, the call rests on the fitted dose curve; in most records, active means well fitted curve in the direction sought with a large enough effect; inconclusive means small, poorly fitted or top-dose-only effect, or another doubt; inactive means no such curve, though single readings can be large; an effect the other way counts as inactive or inconclusive. Potency means the concentration at half of the fitted maximal effect.
SMILES,RE007 growth inh,Cruzain inh noDet,Lassa entry inh,SARS PLP yeast,NS1 function inh,Cruzain Triton,StopGo reporter,Marburg entry inh
COc1ccc(N(C(=O)c2ccco2)S(=O)(=O)c2cccs2)cc1,14%,-7%,-12%,-3%,-38%,1.1%,21%,-2%
Cc1csc(-c2cnn(-c3ccccc3)c2NC(=O)c2ccc(C(F)(F)F)cc2)n1,-20%,?,-15%,-26%,-3%,-2.0%,-13%,-13%
Cc1ccc(Nc2nc3ccccc3nc2-n2nc(C)cc2C)cc1,6%,-8%,nt,7%,-1%,-13%,-10%,nt
COc1ccc(NS(=O)(=O)c2cc(NC(=O)c3cc(F)c(F)c(F)c3F)ccc2N2CCCC2)cc1,-4%,nt,nt,-1%,5%,nt,25%,nt
COc1cc(Cl)c(C)cc1NC(=O)c1cn(CC(C)C)c(=O)c2cc(OC)c(OC)cc12,nt,6%,13%[46.1 µM],nt,nt,0.0%,-9%,25%[46.1 µM]
CC(=O)Nc1nc(C)c(C(C)C)s1,0%,nt,-7%,8%,-4%,nt,6%,15%
COC(=O)C1CCN(c2c([N+](=O)[O-])cc(C(F)(F)F)cc2[N+](=O)[O-])CC1,10%,2%,9%,-12%,-4%,-4.2%,-19%,?
CCN(CC)C(=O)c1[nH]cnc1C(=O)Nc1ccc(OC)cc1,7%,nt,nt,1%,?,nt,-6%,nt
O=C(CSc1nc2c([nH]c3ccccc32)c(=O)n1-c1ccc(F)cc1)N1CCc2ccccc21,nt,11%,1%[46.1 µM],nt,nt,-0.5%,-22%,nt
CCN(CC)CCCNC(=O)C1CCC(CNS(=O)(=O)c2c(C)cc(C)cc2C)CC1 (configuration not stated),-10%,nt,nt,0%,2%,nt,-16%,nt
CC1CCCN(C(=O)CCS(=O)(=O)c2cc3c(cc2Cl)NC(=O)CO3)C1 (configuration not stated),-15%,-2%,4%[46.1 µM],-8%,7%,-8.1%,-23%&-19%,nt
COC(=O)c1ccccc1NC(=O)[C@@H]1CCC(=O)N1C1OC(=O)c2c1ccc(OC)c2OC (some centres not stated),-6%,nt,nt,-4%,-2%,nt,-11%,nt
COC(=O)c1c(-c2ccc(F)cc2)noc1N,-4%,-1%,6%,-6%,-1%,3.8%,-12%,-4%
S=C(Nc1ccc2nsnc2c1)NC1CCCCC1,0%,?,-1%,9%,-29%,-27%,58%[activator],?
Cc1ccc(-n2c(C)cc(/C=N/NC(=O)c3ccncc3)c2C)cc1C,6%,nt,?,-2%,-4%,nt,3%,-28%[46.1 µM]
CCOC(=O)C1(N(CC)CC)Sc2cc(C)ccc2NC1=O (configuration not stated),-9%,-1%,?,-11%,-25%,-7.9%,-17%,?
Cc1[nH]c2ccccc2c1C(=O)CSCC(=O)O,5%,6%,-2%,11%,4%,3.2%,-4%,7%
CCCCNC(=O)Nc1ccccc1C(=O)NCCC,-2%,3%,-9%,4%,-7%,2.5%,nt,-1%
O=C(N/N=C/c1cccc(F)c1)c1ccc(Cl)cc1,3%,nt,1%,-3%,-3%,nt,49%[activator],?
Nc1ncnc2c1ncn2CCN1CCOCC1,0%,-13%,4%,0%,2%,0.9%,-8%,11%
COc1ccc(NC(=O)CN(C)C(=O)c2c(C)nn(-c3ccccc3)c2Cl)cc1,-10%,nt,-14%,-1%,nt,nt,-12%,-8%[46.1 µM]
CCCCn1nnnc1SCC(=O)NNC(=O)c1ccco1,10%,nt,nt,-1%,4%,nt,-21%,25%[46.1 µM]
CCOc1ccccc1NC(=O)CCNS(=O)(=O)c1ccccc1,11%,nt,8%[46.1 µM],-1%,11%,nt,-1%,2%[46.1 µM]
Cc1cccc(OCCN2CSC(=S)N(C)C2)c1,1%,-22%,-15%,1%,-7%,-24%,-24%,-27%&-27%
CCN(Cc1ccccc1)C(=O)c1cccnc1,13%,nt,-2%[46.1 µM],3%,9%,nt,-15%,12%[46.1 µM]
C/C(=N\NC(=O)c1ccco1)c1ccc(NC(=O)c2cccs2)cc1,-5%,-6%,2%,-24%,-9%,-1.5%,6%,-5%
C/C(=C\C(=O)c1ccc(Cl)cc1)Nc1ccc(N2CCOCC2)cc1,3%,-15%,2%,4%,-1%,7.0%,-11%,?
Cc1ccc(NC(=O)CNS(=O)(=O)c2cccs2)cc1F,12%,1%,?,7%,6%,-1.5%,24%,12%
CC(Sc1nc2c(N)ncnc2n1CCOc1ccccc1)C(=O)O (configuration not stated),-7%,nt,nt,-1%,4%,nt,7%,nt
CCOC(=O)c1ccc(NS(=O)(=O)c2cc(Br)cc3c2N(C(C)=O)C(C)C3)cc1 (configuration not stated),nt,6%,-9%[46.1 µM],nt,nt,-5.8%,25%,-19%[46.1 µM]
O=c1[nH]c(SCc2ccc(F)cc2Cl)nc2ccccc12,-2%,nt,?,-2%,2%,nt,-6%,-8%[46.1 µM]
Nc1nc(CSc2ccccc2)nc(N2CCCCC2)n1,12%,nt,?,-1%,nt,nt,19%,-3%[46.1 µM]
COc1ncnc2c1oc1nc(CC(C)C)c3c(c12)CC(C)(C)OC3,-14%,?,16%,1%,5%,0.1%,9%,15%
CC(=O)Nc1cccc(C(=O)/C=C/c2ccc(F)cc2)c1,-12%,nt,?,-4%,-44%,nt,?,?
Cc1ccc(C)c(CN2CCC(CNC(=O)Nc3ccc(Cl)cc3)CC2)c1,1%,nt,-6%[46.1 µM],-2%,-34%,nt,5%,?
CCSc1nnc(-c2cccnc2)n1-c1ccc(C)c(Cl)c1,10%,-3%,-20%,0%,-2%,4.1%,-9%,-7%
Cn1c(-c2ccc3nc(N)sc3c2)nc2cc(N)ccc21,0%,-12%,-4%,-4%,2%,-14%,23%,?
CCCNC(=O)Cn1cnc2sc(C(=O)N3CCN(Cc4ccc5c(c4)OCO5)CC3)c(C)c2c1=O,-1%,nt,5%[46.1 µM],1%,nt,nt,-30%,?
CCn1nnnc1SCC(=O)Nc1nc(C)c(C)s1,-1%,-1%,4%,12%,0%,-1.2%,64%[activator],13%[46.1 µM]
C=CCN1C(=O)/C(=N/n2cnnc2)c2ccccc21,-5%,-5%,-7%,-11%,-8%,11%,-5%,-4%
N#CCCN(C(=O)COC(=O)c1ccc(S(=O)(=O)N2CCOCC2)cc1)c1ccccc1,-5%,nt,16%,13%,nt,nt,-10%,?
CC1CCCCN1CCCNc1ccc(C(CC(N)=O)NC(=O)Cc2ccc(Br)cc2)cc1[N+](=O)[O-] (configuration not stated),-6%,nt,nt,5%,3%,nt,-13%,nt
COCCNC(=O)c1ccc2c(=O)n(Cc3ccco3)c(SCC(=O)NC3CCCC3)nc2c1,?,?,12%,10%,-4%,2.2%,1%,5%
COc1cc(/C=N/NC(=O)Cn2cnc3c2c(=O)n(C)c(=O)n3C)cc(OC)c1OC,-15%,nt,9%,0%,2%,nt,-1%,-7%
CCOc1ccc(-n2c(CC)nc3c(cnn3-c3ccc(Cl)cc3)c2=O)cc1,nt,5%,?,nt,nt,-2.8%,?,13%[46.1 µM]
CCN(c1cccc(C)c1)S(=O)(=O)c1cc(Br)cc2c1N(C(C)=O)C(C)C2 (configuration not stated),nt,?,-27%[46.1 µM],nt,nt,-7.9%,-6%,?
CCOC(=O)Cn1c(=O)n(Cc2ccco2)c(=O)c2ccc(C(=O)NCCc3ccccc3)cc21,6%,20%,6%,4%,2%,-11%,-1%,17%&17%
CC1CCCC(NC(=O)CN2C(=O)NC(Cc3c[nH]c4ccccc34)C2=O)C1C (configuration not stated),2%,nt,-3%,7%,nt,nt,0%,5%
NC(=O)NCc1ccc(C(=O)OCc2ccncc2)cc1,-5%,-4%,6%,17%,5%,0.0%,-5%,7%
CCN(Cc1ccccc1)C(=O)CN1C(=O)c2ccccc2S1(=O)=O,24%,nt,-7%,-7%,nt,nt,3%,-3%
COc1ccc(-n2ncc(C(=O)Nc3ccc(C)cc3Cl)c2C2CCN(C(=O)OC(C)(C)C)CC2)cc1,nt,11%,?,nt,nt,-8.2%,-14%,nt
Cc1ccc(C(=O)Nc2ccc(S(=O)(=O)Nc3ncccn3)cc2)cc1[N+](=O)[O-],3%,nt,nt,2%,-2%,nt,-15%,nt
NC1=NC(=O)/C(=C/c2cccs2)S1,0%,-12%,0%,5%,-6%,-14%,14%,?
CCOC(=O)c1sc2nc3c(SCC(=O)O)cc(C(=O)c4cc(F)ccc4O)cn3c(=O)c2c1C,-11%,?,?,6%,15%,-20%,33%[activator],-1%
CCc1ccc(-c2cc(C)no2)cc1S(=O)(=O)N1CC(=O)Nc2ccccc21,-1%,nt,23%[46.1 µM],2%,0%,nt,7%,16%[46.1 µM]
Cc1ccccc1N=CC1=C(O)c2ccccc2C1=O,?,nt,10µM*,-3%,-2%,nt,8.9µM*,8.9µM*
O=C(NCc1ccc2c(c1)OCO2)c1cc(-c2ccccn2)nc2ccccc12,-16%,nt,-27%,-1%,nt,nt,-20%,-33%[46.1 µM]
O=C(COc1ccccc1Cl)Nc1cccc(S(=O)(=O)NC2=NCCCCC2)c1,0%,nt,-5%[46.1 µM],-2%,nt,nt,28%,?
Cc1ccc(OCCNC(=O)c2ccc(C)cc2)cc1,13%,nt,nt,-2%,-9%,nt,52%[activator],nt
COc1ccc(C(=O)COC(=O)c2nn(C)c(=O)c3ccccc23)c(OC)c1,8%,nt,nt,1%,2%,nt,-3%,nt

# New compounds follow.
SMILES,RE007 growth inh,Cruzain inh noDet,Lassa entry inh,SARS PLP yeast,NS1 function inh,Cruzain Triton,StopGo reporter,Marburg entry inh
CN(C)c1ccc(/C=N/NC(=O)C(=O)/C=C2\NC3(CCCC3)Cc3ccccc32)cc1,18%,?,?,-1%,?,-5.5%,-19%,?
CCOC(=O)C1CCCN(C2=NC(=O)/C(=C/c3ccc(OC)cc3OC)S2)C1 (configuration not stated),6%,nt,nt,-4%,-32%,nt,-7%,nt
CC(=O)C1=C(C)NC(=O)NC1c1cccc([N+](=O)[O-])c1O (configuration not stated),-3%,nt,0%,-1%,nt,nt,-15%,-2%[46.1 µM]
Cc1ccccc1C(=O)Nc1nnc(-c2cccnc2)o1,9%,nt,8%,-5%,nt,nt,24%,6%&6%[46.1 µM]
CCc1ccc(C(=O)NCc2cnn(C)c2)s1,11%,nt,?,0%,nt,nt,18%,8%[46.1 µM]
Cc1ccc(S(=O)(=O)N2CCOCC2)cc1C(=O)N1CCOCC1,3%,-6%,5%,-12%,-4%,-0.5%,12%,?

# Screening data as filed in PubChem BioAssay.
